# eIF4H inh: human eIF4H binding inhibitors, primary screen, translation initiation inhibitor project, biochemical, uHTS, fluorescence polarization; Eukaryotic translation initiation factor 4H (Homo sapiens), Q15056; eIF4H fluorescence polarization binding assay; inhibition, % at 35 µM; 290,000 compounds, 0.94% hits;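 active = 50% or more with normal probe brightness, or confirmed in later tests; inconclusive = above 50% with abnormal brightness, or retests that disagree; inactive = below 50% or failed in later tests; about a fifth of its hits are not listed in these tables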;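 also: calls also rest on retests at 20 µM and on dose response follow-up; 0% = protein and probe with vehicle and 100% = probe without protein; strong numbers were not always called active; many hits fall short of the cut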
# CSC inhib: cancer stem cell viability inhibitors, primary screen, luminescence | cancer stem cell-like cells viability | inhibition, % at 7.5 µM | 300,000 compounds, 1.1% hits | AID 2717, 2010;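 active = mean at 75% or more and at least half the replicates too; inconclusive = mean and replicates disagree; tested in HMLE shEcad cells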;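 also: 0% = median of negative and 100% = median of positive control wells; the first replicate is given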
# Rce1 inhib: yeast Rce1p protease inhibitors, primary screen, biochemical, fluorescence, cell-free homogeneous | CAAX prenyl protease 2 (Saccharomyces cerevisiae (strain ATCC 204508 / S288c)), Q03530 | yeast membranes, quenched prenylated peptide cleavage fluorescence | calls only | 290,000 compounds, 0.27% hits;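 active = fall in fluorescence gain of 50% or more versus controls, with final raw signal at or below 3038400; inconclusive = same 50% fall but final raw signal above 3038400; inactive = fall in fluorescence gain under 50%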;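 also: plate controls were neutral control wells for no effect and wells lacking membranes for full effect; tested at 10 µM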
# HIV Env fusion: inhibitors of HIV-1 Env-driven cell-cell fusion, primary screen, HeLa-JRFL effector, CEM21 target cells, luciferase. 360,000 compounds, 1.1% hits. inhibition, % at 12.3 µM. AID 651610, 2012;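 active = mean replicate inhibition score of at least 50 and every replicate individually at or above 50; inconclusive = only one of the two criteria met; inactive = mean below 50 and not all replicates reaching 50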;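 also: 0% = plate neutral controls and 100% = maraviroc near 300 nM; one replicate is shown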
# Yeast UUG start: modulators of yeast start codon fidelity, primary screen, whole organism, S. cerevisiae, single point, plate reader; S. cerevisiae UUG-firefly luciferase reporter, luminescence/redox ratio; activity score, % at 18.7 µM; 350,000 compounds, 0.13% hits; AID 602363, 2012;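 active = replicate mean at a twofold rise or more, about +100% in these data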;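 also: firefly luciferase made from a UUG start codon reports start codon fidelity; reporter light over untreated wells divided by growth signal over untreated wells; some hits fall short of that in this replicate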
# MT1-MMP act inh: blockers of MT1-MMP proenzyme processing, primary screen, HT1080 RFP-PRO-GFP cells, GFP/RFP fluorescence; GFP/RFP ratio change, % at 20 µM; AID 651647, 2012; Matrix metalloproteinase-14 (Homo sapiens), P50281; GFP/RFP ratio fluorescence, overnight; percent of plate control window, DMSO zero; 360,000 compounds, 0.061% hits;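 active = GFP/RFP ratio change of at least 30% with cell ATP level not reduced by more than half and red fluorescence within 50% of control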; also: strong numbers were not always called active
#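 Assay system: HT1080 RFP-PRO-GFP cells. Benchmarks: DMSO vehicle wells and RFP-L50D-GFP reporter cell wells. Times: overnight cell settling, then overnight compound exposure, 37 °C, 5% CO2. Compound: 20 µM single dose, 1% DMSO. Read-out basis: GFP/RFP fluorescence ratio.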
# PABP FP inh: PABP poly(A) RNA binding inhibitors, primary screen, biochemical, fluorescence polarization, uHTS | AID 2014, 2009 | 290,000 compounds, 1% hits | Polyadenylate-binding protein 1 (Homo sapiens), P11940 | inhibition, % at 35 µM;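 active = 50% or more with normal probe brightness, or confirmed in later tests; inconclusive = above 50% with abnormal brightness, or retests that disagree; inactive = below 50% or failed in later tests; about a fifth of its hits are not listed in these tables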;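 also: calls also rest on retests at 20 µM and on dose response follow-up; controls were probe without protein and protein plus probe with vehicle; some compounds called inactive have numbers as strong as hits; many hits fall short of the cut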
# Target sequence (P11940 whole entry, looked up): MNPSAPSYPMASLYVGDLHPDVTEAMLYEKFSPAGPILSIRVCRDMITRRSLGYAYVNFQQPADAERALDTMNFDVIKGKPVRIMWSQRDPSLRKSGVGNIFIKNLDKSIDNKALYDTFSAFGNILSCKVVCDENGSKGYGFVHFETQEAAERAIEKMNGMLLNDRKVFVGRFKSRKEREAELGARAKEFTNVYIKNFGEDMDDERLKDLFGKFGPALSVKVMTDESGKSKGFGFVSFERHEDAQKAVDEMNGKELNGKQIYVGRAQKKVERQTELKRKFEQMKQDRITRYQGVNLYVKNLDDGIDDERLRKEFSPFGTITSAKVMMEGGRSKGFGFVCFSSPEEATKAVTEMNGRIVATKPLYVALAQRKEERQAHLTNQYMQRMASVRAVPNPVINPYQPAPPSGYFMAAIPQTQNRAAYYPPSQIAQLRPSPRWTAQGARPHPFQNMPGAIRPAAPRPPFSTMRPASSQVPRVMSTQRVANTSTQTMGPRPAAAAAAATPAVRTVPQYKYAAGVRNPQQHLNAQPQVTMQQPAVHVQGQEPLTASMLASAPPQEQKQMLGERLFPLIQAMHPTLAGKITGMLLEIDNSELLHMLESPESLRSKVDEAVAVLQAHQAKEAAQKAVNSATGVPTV
# MT1-MMP act inh RFP: second read-out of MT1-MMP act inh, no call of its own (marks repeat the call); RFP signal change, %; measured here: RFP expression control read;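 0 = vehicle wells; hits needed this value within 50% of zero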
# Numbers without * were called inactive; i = inactive; ? = inconclusive; . = not tested or not shown. This is a subset, so the mix of outcomes need not match the whole.
# The opening 14 records, ahead of the listing:
# Results follow in this order: eIF4H inh | CSC inhib | Rce1 inhib | HIV Env fusion | Yeast UUG start | MT1-MMP act inh | MT1-MMP act inh RFP | PABP FP inh
> CCOC(=O)c1cc(-c2ccccc2)sc1NC(=O)C(C)Sc1nnc(C)s1 (stereo not drawn)
 : -13 | 19 | i | 9 | -19 | 0 | -1 | -9
> CC1CCCCC1NC(=O)C(=O)NCC1CCCO1 (stereo not drawn)
 : 5 | -8 | i | . | 4 | 2 | -5 | -11
> COc1ccc(C(=O)NNC(=S)NC(=O)c2ccccc2[N+](=O)[O-])cc1
 : 7 | 10 | i | -22 | . | 4 | 4 | 0
> COc1ccc(-c2nc3c(c(=O)[nH]c(=O)n3Cc3ccccc3)n2CCO)cc1
 : -9 | -14 | i | 0 | -2 | 6 | 4 | 2
> CCOC(=O)N1CCC(=NNC(=O)NC2CCCCC2)CC1
 : -9 | -10 | i | -3 | -16 | -2 | -5 | -10
> Clc1ccc(Cn2c(-c3cccnc3Cl)nc3ccccc32)c(Cl)c1
 : -8 | -2 | i | 27 | 4 | -5 | -5 | -6
> CSc1cccc(NC(=S)N(C(C)C)C(C)c2ccccn2)c1 (stereo not drawn)
 : 2 | 3 | i | -5 | . | 6 | 3 | -4
> CCCCCCCCC(=O)Nc1cc(C)ccc1OC
 : -2 | -4 | i | ? | 6 | 3 | -4 | -11
> Cc1ccccc1-c1nc(CN2CCC(C(=O)NC3CC3)CC2)c(C)o1
 : -20 | -7 | i | 5 | . | 1 | 2 | -10
> O=C(NCc1nc2ccccc2[nH]1)C1=C[C@H](c2csc3ccccc23)C[C@H](OCc2ccc(CO)cc2)O1
 : -24 | 15 | i | -28 | -29 | 1 | -12 | -15
> Cc1cccc2c1-c1sc(C(=O)NCCCN3CCc4ccccc4C3)cc1CO2
 : -1 | -9 | i | 10 | -5 | -2 | -2 | -3
> COc1ccc(C(=O)OCC(=O)c2ccc3c(c2)NC(=O)CO3)cc1S(=O)(=O)N1CCOCC1
 : . | -21 | . | 11 | -12 | 0 | 4 | .
> CC(C)(C)Cc1nc2ccccc2n1CCc1ccccc1
 : 1 | 1 | i | -4 | -11 | -4 | -6 | 1
> NC(=O)c1cccc(-c2coc3c(C(=O)NCc4cccnc4)cccc23)c1
 : . | . | . | 11 | 0 | -1 | -20 | .

# Main list, from the start:
# Results follow in this order: eIF4H inh | CSC inhib | Rce1 inhib | HIV Env fusion | Yeast UUG start | MT1-MMP act inh | MT1-MMP act inh RFP | PABP FP inh
> CCOC(=O)c1cc(-c2ccccc2)sc1NC(=O)C(C)Sc1nnc(C)s1 (stereo not drawn)
 : -13 | 19 | i | 9 | -19 | 0 | -1 | -9
> CC1CCCCC1NC(=O)C(=O)NCC1CCCO1 (stereo not drawn)
 : 5 | -8 | i | . | 4 | 2 | -5 | -11
> COc1ccc(C(=O)NNC(=S)NC(=O)c2ccccc2[N+](=O)[O-])cc1
 : 7 | 10 | i | -22 | . | 4 | 4 | 0
> COc1ccc(-c2nc3c(c(=O)[nH]c(=O)n3Cc3ccccc3)n2CCO)cc1
 : -9 | -14 | i | 0 | -2 | 6 | 4 | 2
> CCOC(=O)N1CCC(=NNC(=O)NC2CCCCC2)CC1
 : -9 | -10 | i | -3 | -16 | -2 | -5 | -10
> Clc1ccc(Cn2c(-c3cccnc3Cl)nc3ccccc32)c(Cl)c1
 : -8 | -2 | i | 27 | 4 | -5 | -5 | -6
> CSc1cccc(NC(=S)N(C(C)C)C(C)c2ccccn2)c1 (stereo not drawn)
 : 2 | 3 | i | -5 | . | 6 | 3 | -4
> CCCCCCCCC(=O)Nc1cc(C)ccc1OC
 : -2 | -4 | i | ? | 6 | 3 | -4 | -11
> Cc1ccccc1-c1nc(CN2CCC(C(=O)NC3CC3)CC2)c(C)o1
 : -20 | -7 | i | 5 | . | 1 | 2 | -10
> O=C(NCc1nc2ccccc2[nH]1)C1=C[C@H](c2csc3ccccc23)C[C@H](OCc2ccc(CO)cc2)O1
 : -24 | 15 | i | -28 | -29 | 1 | -12 | -15

# The results go on.
# Results follow in this order: eIF4H inh | CSC inhib | Rce1 inhib | HIV Env fusion | Yeast UUG start | MT1-MMP act inh | MT1-MMP act inh RFP | PABP FP inh
> Cc1cccc2c1-c1sc(C(=O)NCCCN3CCc4ccccc4C3)cc1CO2
 : -1 | -9 | i | 10 | -5 | -2 | -2 | -3
> COc1ccc(C(=O)OCC(=O)c2ccc3c(c2)NC(=O)CO3)cc1S(=O)(=O)N1CCOCC1
 : . | -21 | . | 11 | -12 | 0 | 4 | .
> CC(C)(C)Cc1nc2ccccc2n1CCc1ccccc1
 : 1 | 1 | i | -4 | -11 | -4 | -6 | 1
> NC(=O)c1cccc(-c2coc3c(C(=O)NCc4cccnc4)cccc23)c1
 : . | . | . | 11 | 0 | -1 | -20 | .
> COCCNC(=O)c1nn(-c2cc(OC)cc(OC)c2)c(=O)c2ccccc12
 : -4 | -3 | i | . | -3 | 5 | -1 | -6
> COc1cccc(CN(C)C(=O)Cc2ccc(OC)c(S(=O)(=O)N3CCOCC3)c2)c1
 : . | -6 | i | 8 | . | 0 | 2 | .
> CCc1ccc(CN(C)C(=O)c2cc(COc3ccc(OC)cc3Cl)on2)nc1
 : -2 | 6 | i | -41 | -7 | -1 | -1 | 46
> CN(C(=O)CSc1nnc(CNC(=O)c2ccccc2)o1)c1ccccc1
 : -5 | -1 | i | 0 | -12 | -2 | 1 | -2
> CC(C)(C)C(=O)COC(=O)C1=NN(c2ccccc2)C(=O)CC1
 : 3 | -4 | i | -13 | -10 | -3 | 0 | 9
> COc1cc(N=Nc2c(C)n(C)n(-c3ccccc3)c2=O)ccc1N
 : -1 | 0 | i | -12 | -14 | 6 | 5 | -26

# Part of the list above, field by field.
CCOC(=O)c1cc(-c2ccccc2)sc1NC(=O)C(C)Sc1nnc(C)s1 (stereo not drawn)
  eIF4H inh = -13	CSC inhib = 19	Rce1 inhib = i	HIV Env fusion = 9	Yeast UUG start = -19	MT1-MMP act inh = 0	MT1-MMP act inh RFP = -1	PABP FP inh = -9
CC1CCCCC1NC(=O)C(=O)NCC1CCCO1 (stereo not drawn)
  eIF4H inh = 5	CSC inhib = -8	Rce1 inhib = i	HIV Env fusion = .	Yeast UUG start = 4	MT1-MMP act inh = 2	MT1-MMP act inh RFP = -5	PABP FP inh = -11

# Carrying on:
# Results follow in this order: eIF4H inh | CSC inhib | Rce1 inhib | HIV Env fusion | Yeast UUG start | MT1-MMP act inh | MT1-MMP act inh RFP | PABP FP inh
> CN(C)S(=O)(=O)c1cccc(NC(=O)CSc2nc3ccccc3[nH]2)c1
 : -2 | -10 | i | -4 | . | 1 | -14 | 44
> CC(=O)N1CC(=O)N(Cc2ccccc2)/C(=C/c2ccccc2)C1=O
 : 2 | -13 | i | -12 | . | -6 | -4 | ?
> CCOc1cc(C2Nc3ccccc3C(=O)N2c2ccccc2OC)ccc1O (stereo not drawn)
 : -12 | 0 | i | -174 | 2 | 2 | 4 | 1
> CC(C)OCCCNC(=S)N1CCC(C(=O)c2ccc3c(c2)OCCO3)CC1
 : 1 | 1 | i | -5 | . | 4 | 0 | 6
> CCn1nc(C(=O)NCc2ccco2)c(Cl)c1Cl
 : 2 | 3 | i | -54 | . | -1 | 4 | -4
> O=[N+]([O-])c1cc(Oc2cccnc2)cc([N+](=O)[O-])c1
 : -3 | . | i | 8 | . | 1 | 2 | 14
> C/C(CC(=O)Nc1c(C)cc(C)cc1C)=N\NC(=O)c1cnccn1
 : -6 | -1 | i | -7 | -40 | -2 | 1 | -11
> O=c1c2ccccc2cnn1Cc1ccc(Br)cc1F
 : 13 | -5 | i | 5 | -4 | 1 | 0 | 14
> C[C@@H](C(=O)Nc1ccc2c(c1)OCO2)n1c(=O)[nH]c2ccccc2c1=O
 : 5 | 19 | i | -2 | -17 | 2 | 5 | 2
> CC1=C(C(=O)OC(C)C)C(c2cccnc2)C2=C(CC(C)(C)CC2=O)N1 (stereo not drawn)
 : 10 | 6 | i | . | -17 | -2 | -6 | -16
> CC1(C)Cc2c(sc(NC(=O)C(=O)N3CCCC3)c2C(=O)O)CO1
 : -4 | -20 | i | -9 | -6 | 0 | -2 | -4

# Bioassay records from PubChem.
